Screening data from PubChem BioAssay.
Anthrax LT inh = blocks cellular internalization of anthrax lethal toxin; Cells, anthrax lethal toxin internalization, FRET ratio (460/530); 70,000 compounds, 0.67% hits; Potency, µM (highest dose often 40 µM), for inactives: at the highest dose activity change, negative = inhibition, actives largely listed as inhibitors; active = well fitted falling ratio curve with the 530 nm signal flat; inconclusive = other ratio curves, or a change in one channel alone; inactive = flat curves in the ratio and both channels; the % refers to the ratio; also: % is scaled to controls: 0 for no effect and ±100 for the full control effect; nearly all actives have a fitted effect of over 50% in size; tested in ME-180 cells; beta-lactamase reporter
Prx2 Sm inh = inhibitors of Schistosoma mansoni peroxiredoxin 2. S. mansoni Prx2 activity coupled to TGR/GSH (TGR is thioredoxin glutathione reductase), NADPH fluorescence loss, qHTS; some inactives read as strong as hits. Potency, µM. 65,000 compounds, 0.07% hits. AID 448; active means full or partial inhibition curve with a strong effect at the top dose; inconclusive means weaker partial or single-point curve; inactive means no accepted curve; also: series up to 57 µM; many of its hits are not listed in these tables
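Prx2 activity was followed as the loss of NADPH fluorescence (ex 365/em 450 nm), read every 30 sec for 8 min after H2O2 start. The enzyme mix (50 nM Prx2, 25 nM TGR, GSH, NADPH; pH 7.4 phosphate buffer) was incubated with compound for 15 min at room temperature first.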
The depositor's hits bear a star; [ ] = dose if it differs, or a comment. Potency is read from the fitted curve at half-maximal effect. These rows are one share of the data. The share of hits here may be higher or lower than overall.

How did COC(=O)c1cccc(NC(=O)CSc2nnc(COc3cccc(C)c3)n2C)c1 do in these assays?
Anthrax LT inh: -6.3%; Prx2 Sm inh: >57

Results for COc1ccc(OC)c(CN2C(=O)CCC2(C)C(=O)NC2CCCCCC2)c1 (stereo not given) ?
Anthrax LT inh: 21.3%; Prx2 Sm inh: >57

How did C/C(CCN1CCc2nc(-c3ccccc3)c(-c3ccccc3)cc2C1)=N\O[C@@H](C)c1cn([C@@H]2COC[C@@H]2O)nn1 do in these assays?
Anthrax LT inh: inconclusive

What do the screens show for `CCOC(=O)c1c(C)oc2cc(Br)c(O)c(Br)c12`?
Anthrax LT inh: -19.8%; Prx2 Sm inh: >57

How did COc1ccc2[nH]cc(C(=O)CN3CCC(C)CC3)c2c1 do in these assays?
Anthrax LT inh: -0.8%; Prx2 Sm inh: >57

What do the screens show for `Cc1cc(C#N)c2ccccc2n1`?
Anthrax LT inh: -1.9%; Prx2 Sm inh: >57

What do the screens show for `[N-]=[N+]=CC(=O)CC[C@H](N)C(=O)O`?
Anthrax LT inh: -9.7%[8 µM]; Prx2 Sm inh: >57

Results for COC(=O)c1ccc(NC(=O)N2CCOCC2)cc1 ?
Anthrax LT inh: -10.3%; Prx2 Sm inh: >57

How did Cc1nn(Cc2ccccc2Cl)c(C)c1NC(=O)c1cc(-c2ccc(F)cc2)on1 do in these assays?
Anthrax LT inh: -5.8%; Prx2 Sm inh: >57

What do the screens show for `CC1CCCN(C/C(O)=C(\C#N)c2nc3ccccc3[nH]2)C1` (stereo not given)?
Anthrax LT inh: 14.3%; Prx2 Sm inh: >57

Results for CCOC(=O)C1=C(C)NC(C)=C(C(=O)OCC)C1C(=O)OC1CCOC1=O (stereo not given) ?
Anthrax LT inh: 6.2%; Prx2 Sm inh: >57

How did Cn1c(=O)c2c(nc(CN3CCC(C(N)=O)CC3)n2Cc2ccccc2F)n(C)c1=O do in these assays?
Anthrax LT inh: 5.5%; Prx2 Sm inh: >57

Results for COC(=O)CC1C(=O)NCCN1C(=O)Nc1ccccc1 (stereo not given) ?
Anthrax LT inh: 4.9%; Prx2 Sm inh: >57

How did CCOC(=O)c1[nH]c(C)c(/C(C)=N\O)c1C do in these assays?
Anthrax LT inh: -7.5%

Results for CN(C)CCCN1C(=O)C(=O)/C(=C(/O)c2ccc3c(c2)OCO3)C1c1ccccn1 (stereo not given) ?
Anthrax LT inh: 5.7%; Prx2 Sm inh: >57

Results for Cc1cc2cc(CCNC(=O)CC(C)C)c(=O)[nH]c2cc1C ?
Anthrax LT inh: 1.2%; Prx2 Sm inh: >57

What do the screens show for `CCn1c(C(C)NC(=O)c2ccc(OC)c(OC)c2)nc2ccccc21` (stereo not given)?
Anthrax LT inh: 5.9%; Prx2 Sm inh: >57

Results for CCSc1nc2c(c(=O)[nH]1)C(c1cccnc1)C(C(=O)OC(C)C)=C(C)N2 (stereo not given) ?
Anthrax LT inh: 2.6%; Prx2 Sm inh: >57

What do the screens show for `Cc1ccc(OCCCC(=O)Nc2ccc(N3CCOCC3)cc2)c(C)c1`?
Anthrax LT inh: 8.9%; Prx2 Sm inh: >57

What do the screens show for `Fc1ccccc1N1CCN(Cc2ccc3c(c2)OCO3)CC1`?
Anthrax LT inh: inconclusive

What do the screens show for `Cc1ccc(CCNC(=O)C2CCC(=O)N2C(C)C)cc1` (stereo not given)?
Anthrax LT inh: 9.0%; Prx2 Sm inh: >57

What do the screens show for `Cc1oc(-c2cccc(Cl)c2)[n+]([O-])c1C`?
Anthrax LT inh: inconclusive; Prx2 Sm inh: >57

What do the screens show for `O=C(CN1C(=O)c2ccccc2C1=O)Nc1cccnc1`?
Anthrax LT inh: 6.5%; Prx2 Sm inh: >57

What do the screens show for `CCc1ccccc1Nc1nc(N)nc(COC(=O)c2cccn2C)n1`?
Anthrax LT inh: 1.1%; Prx2 Sm inh: >57

Results for Clc1ccc(NCn2cncn2)nc1 ?
Anthrax LT inh: 7.0%

What do the screens show for `C[C@@]1(C(NC(=O)c2ccc(-c3ccccc3)cc2)c2ccc(Cl)cc2)C[C@H]1C1CCCCC1` (stereo not given in full)?
Anthrax LT inh: 16.2%; Prx2 Sm inh: >57

Results for CCOC(=O)c1cnn(-c2nc(C)cc(C)n2)c1N ?
Anthrax LT inh: -4.2%; Prx2 Sm inh: >57

Results for Cc1ccc(N(CC(=O)NCc2cccnc2)S(C)(=O)=O)cc1C ?
Anthrax LT inh: 23.2%

Results for COc1ccc(C2SCC(=O)N2c2c(C)n(C)n(-c3ccccc3)c2=O)cc1 (stereo not given) ?
Anthrax LT inh: 2.8%; Prx2 Sm inh: >57

How did CCCCC1(C)NC(=O)N(CC(=O)Nc2ccc(S(=O)(=O)N3CCOCC3)cc2)C1=O (stereo not given) do in these assays?
Anthrax LT inh: 2.9%; Prx2 Sm inh: >57

Results for COC(=O)CCn1nnc(-c2cccs2)n1 ?
Anthrax LT inh: -0.5%; Prx2 Sm inh: >57

Results for CCC(OC(=O)C(NC(=O)c1ccccc1)c1ccccc1)C(=O)Nc1cc(C)on1 (stereo not given) ?
Anthrax LT inh: 1.0%

What do the screens show for `COc1ccc(NS(=O)(=O)c2ccc(N)cc2)nn1`?
Anthrax LT inh: -8.9%[3.58 µM]; Prx2 Sm inh: >57

How did CCOc1cc(C(=O)Nc2ccon2)cc(OCC)c1OCC do in these assays?
Anthrax LT inh: -7.5%; Prx2 Sm inh: >57

What do the screens show for `ON1C(c2ccccc2C(F)(F)F)N(O)[C@H]2CCCC[C@H]21` (stereo not given in full)?
Anthrax LT inh: 14.8%; Prx2 Sm inh: >57

What do the screens show for `NCC[C@H](N)C(=O)O`?
Anthrax LT inh: -1.4%[8 µM]; Prx2 Sm inh: >57

What do the screens show for `Cn1c(=N)n(CC(=O)C(C)(C)C)c2ccccc21`?
Anthrax LT inh: -5.0%; Prx2 Sm inh: >57

Results for Cc1cc(C(=O)CSc2nnnn2-c2ccccc2)c(C)n1CC1CCCO1 (stereo not given) ?
Anthrax LT inh: -7.5%; Prx2 Sm inh: >57

What do the screens show for `Cc1ccc(S(=O)(=O)NCCC(=O)NCc2ccc3c(c2)OCO3)cc1C`?
Anthrax LT inh: inconclusive; Prx2 Sm inh: >57

What do the screens show for `CC(C)=CC(=O)NCCc1ccccc1`?
Anthrax LT inh: 13.5%; Prx2 Sm inh: >57

Results for CC(=O)NC(C)C12CC3CC(CC(CC(=O)O)(C3)C1)C2 (stereo not given) ?
Anthrax LT inh: 2.2%; Prx2 Sm inh: >57

How did O=C(CCN1C(=O)C2C3C=CC(C3)C2C1=O)Nc1ccc(F)cc1 (stereo not given) do in these assays?
Anthrax LT inh: 6.6%; Prx2 Sm inh: >57

Results for CCCCCN(C(=O)NC(=O)Nc1ccccc1C)S(C)(=O)=O ?
Anthrax LT inh: -4.8%; Prx2 Sm inh: >57

What do the screens show for `C[C@@H](C(=O)Nc1ccc2ccccc2c1)[C@H]1C[C@]1(C)[C@H](NC(=O)c1cccnc1)c1ccccc1`?
Anthrax LT inh: inconclusive; Prx2 Sm inh: >57

Results for O=C(COC(=O)c1ccc[nH]c1=O)NCC1CCCO1 (stereo not given) ?
Anthrax LT inh: -5.6%; Prx2 Sm inh: >57

How did COCc1cc(C)nc(SCC(=O)Nc2cccc(C)c2)c1C#N do in these assays?
Anthrax LT inh: inconclusive; Prx2 Sm inh: >57

Results for CCOC(=O)c1csc(NC(=O)CSc2nnnn2-c2ccc(OCC)cc2)n1 ?
Anthrax LT inh: inconclusive; Prx2 Sm inh: >57

Results for CC(=O)N1CCN(S(=O)(=O)c2cccc(C(=O)Nc3nc4ccccc4[nH]3)c2)CC1 ?
Anthrax LT inh: inconclusive; Prx2 Sm inh: >57

Looked up by structure from above:
What do the screens show for `C[C@@H](C(=O)Nc1ccc2ccccc2c1)[C@H]1C[C@]1(C)[C@H](NC(=O)c1cccnc1)c1ccccc1`?
Anthrax LT inh: inconclusive; Prx2 Sm inh: >57

What do the screens show for `O=C(CN1C(=O)c2ccccc2C1=O)Nc1cccnc1`?
Anthrax LT inh: 6.5%; Prx2 Sm inh: >57

Results for O=C(COC(=O)c1ccc[nH]c1=O)NCC1CCCO1 (stereo not given) ?
Anthrax LT inh: -5.6%; Prx2 Sm inh: >57

What do the screens show for `Cc1cc(C#N)c2ccccc2n1`?
Anthrax LT inh: -1.9%; Prx2 Sm inh: >57

What do the screens show for `CCc1ccccc1Nc1nc(N)nc(COC(=O)c2cccn2C)n1`?
Anthrax LT inh: 1.1%; Prx2 Sm inh: >57

Next structures:
Results for CCOC(=O)N1CCN(c2c(NCCN3CCN(Cc4ccccc4)CC3)c(=O)c2=O)CC1 ?
Anthrax LT inh: -9.7%; Prx2 Sm inh: >57

What do the screens show for `Clc1ccc(-c2nnc3sc(-c4ccc(Br)o4)nn23)c(Cl)c1`?
Prx2 Sm inh: >57

Results for COc1ccc(CNc2ccc3c(c2)nc(C)n3C)cc1 ?
Anthrax LT inh: 0.3%; Prx2 Sm inh: >57

Results for CCc1nc2c(sc3nc4c(cc32)COC(C)(C)C4)c(=O)n1Cc1ccco1 ?
Anthrax LT inh: inconclusive; Prx2 Sm inh: >57

How did CCCCOC(=O)c1ccc(Nc2ncnc3nc[nH]c23)cc1 do in these assays?
Anthrax LT inh: -10.8%; Prx2 Sm inh: >57

What do the screens show for `CCc1ccc(CN2C(=O)CCC2(C)C(=O)NC2CCCC2)cc1` (stereo not given)?
Anthrax LT inh: -1.4%; Prx2 Sm inh: >57

Results for CCOC(=O)c1c(NC(=O)CSc2nnc(CNc3ccc(F)cc3)o2)sc(C(C)=O)c1C ?
Anthrax LT inh: -11.1%; Prx2 Sm inh: >57

What do the screens show for `CCOC(=O)c1sc(=S)n(Cc2ccccc2)c1N`?
Anthrax LT inh: -19.4%; Prx2 Sm inh: inconclusive

What do the screens show for `Cc1oc(C(C)(C)C)cc1C(=O)Nc1ccc(C(=O)O)cc1`?
Anthrax LT inh: -4.2%

How did O=C(CSc1nnc(-c2ccncc2)n1Cc1ccco1)OC1CCCCC1 do in these assays?
Anthrax LT inh: 11.5%; Prx2 Sm inh: >57

What do the screens show for `NC(=O)C1(N2CCCCC2)CCN(c2ccc3nnc(-c4ccccc4)n3n2)CC1`?
Anthrax LT inh: -13.5%; Prx2 Sm inh: >57

How did CCC(C)(C)n1nnnc1CN(Cc1cc2cc(OC)c(OC)cc2[nH]c1=O)C1CCCC1 do in these assays?
Anthrax LT inh: 1.9%; Prx2 Sm inh: >57

How did CN1C(=O)C2(c3ccccc31)N(C)CC(c1ccccn1)C21SC(=S)N(Cc2ccco2)C1=O (stereo not given) do in these assays?
Anthrax LT inh: inconclusive; Prx2 Sm inh: >57

What do the screens show for `Cc1ccc(CCNC(=O)NC(C)(C)C)cc1`?
Anthrax LT inh: -11.1%; Prx2 Sm inh: >57

What do the screens show for `COc1ccc(OC(=O)c2ccncc2)cc1`?
Anthrax LT inh: -12.0%; Prx2 Sm inh: >57

How did CCOC(=O)c1[nH]c(CSc2nnnn2-c2ccccc2C)c(C(=O)OCC)c1C do in these assays?
Anthrax LT inh: -13.1%; Prx2 Sm inh: >57

What do the screens show for `COC(=O)c1ccc(C2C(C(=O)OCC(C)C)=C(C)N=C3SCCC(=O)N32)cc1` (stereo not given)?
Anthrax LT inh: inconclusive

What do the screens show for `O=C(Nc1cccc(-c2nnc(-c3ccccc3)o2)c1)c1ccco1`?
Prx2 Sm inh: >57

Results for COCCCNC(=O)C1CCN(S(=O)(=O)c2c(C)noc2/C=C\c2ccc(OC)cc2)CC1 ?
Anthrax LT inh: 4.4%; Prx2 Sm inh: >57

What do the screens show for `Cc1ccc2cc(C#N)c(NCCNC(=O)C3CC3)nc2c1C`?
Anthrax LT inh: -3.3%; Prx2 Sm inh: >57

How did CC(=O)Nc1cc2c(cc1C(C)=O)OCCO2 do in these assays?
Anthrax LT inh: 21.0%; Prx2 Sm inh: >57

Results for c1ccc(-n2ncc3c(NCCN4CCCCC4)ncnc32)cc1 ?
Prx2 Sm inh: >57

What do the screens show for `CC(=O)NC1=NC(=O)CS1`?
Anthrax LT inh: 7.7%; Prx2 Sm inh: >57

How did O=C1c2oc3ccccc3c(=O)c2C(c2cccnc2)N1CCCN1CCOCC1 (stereo not given) do in these assays?
Anthrax LT inh: inconclusive; Prx2 Sm inh: >57

What do the screens show for `CCCn1c(=O)c2ccccc2n2c(Sc3nnnn3-c3ccccc3)nnc12`?
Anthrax LT inh: inconclusive; Prx2 Sm inh: >57

How did CS(=O)(=O)c1ccc([C@H](O)[C@H](CF)NC(=O)C(Cl)Cl)cc1 do in these assays?
Anthrax LT inh: 11.6%[3.58 µM]; Prx2 Sm inh: >57

What do the screens show for `COc1cc2[nH]c(=O)n(CCC(=O)N3CCc4ccccc4C3)c(=O)c2cc1OC`?
Anthrax LT inh: 0.7%; Prx2 Sm inh: >57

How did COCc1cc(C)nc(N2CCc3ccccc32)c1C#N do in these assays?
Anthrax LT inh: inconclusive; Prx2 Sm inh: >57

What do the screens show for `CC(C)CO/N=C1/C[C@@H](O)[C@@H](O)[C@@H]2[C@@H]3C(=O)N(Cc4ccccc4)C(=O)[C@H]3CC[C@@H]12`?
Anthrax LT inh: 1.6%[8 µM]

What do the screens show for `CN(C)c1nccc(Nc2ccccc2)c1C#N`?
Anthrax LT inh: 2.0%; Prx2 Sm inh: >57

What do the screens show for `Cn1nnnc1SCC(=O)Nc1ccccc1N1CCOCC1`?
Anthrax LT inh: -3.1%; Prx2 Sm inh: >57

What do the screens show for `O=c1cc(C23CC4CC(CC(C4)C2)C3)[nH][nH]1`?
Anthrax LT inh: -7.8%; Prx2 Sm inh: >57
